KCNQ2 pot: enhances the rat KCNQ2 potassium channel; O88943; CHO-K1 KCNQ2, FluxOR thallium flux fluorescence; hits give high values; B-score at 10 µM; 0.54% of 310,000 active; AID 2239;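 active means fluorescence ratio B-score at least 3 SD of library B-scores, with initial fluorescence B-score within 3 SD, cut at about 5.3 in these data; same plate scores as AID 2156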;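 further: B-score of peak minus minimum over baseline fluorescence ratio after K+ and Tl+ stimulus; positive B-score means potentiation of KCNQ2 with more thallium influx and brighter signal; only the inactives scoring about 0 or higher are listed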
Target sequence (O88943 whole entry, looked up): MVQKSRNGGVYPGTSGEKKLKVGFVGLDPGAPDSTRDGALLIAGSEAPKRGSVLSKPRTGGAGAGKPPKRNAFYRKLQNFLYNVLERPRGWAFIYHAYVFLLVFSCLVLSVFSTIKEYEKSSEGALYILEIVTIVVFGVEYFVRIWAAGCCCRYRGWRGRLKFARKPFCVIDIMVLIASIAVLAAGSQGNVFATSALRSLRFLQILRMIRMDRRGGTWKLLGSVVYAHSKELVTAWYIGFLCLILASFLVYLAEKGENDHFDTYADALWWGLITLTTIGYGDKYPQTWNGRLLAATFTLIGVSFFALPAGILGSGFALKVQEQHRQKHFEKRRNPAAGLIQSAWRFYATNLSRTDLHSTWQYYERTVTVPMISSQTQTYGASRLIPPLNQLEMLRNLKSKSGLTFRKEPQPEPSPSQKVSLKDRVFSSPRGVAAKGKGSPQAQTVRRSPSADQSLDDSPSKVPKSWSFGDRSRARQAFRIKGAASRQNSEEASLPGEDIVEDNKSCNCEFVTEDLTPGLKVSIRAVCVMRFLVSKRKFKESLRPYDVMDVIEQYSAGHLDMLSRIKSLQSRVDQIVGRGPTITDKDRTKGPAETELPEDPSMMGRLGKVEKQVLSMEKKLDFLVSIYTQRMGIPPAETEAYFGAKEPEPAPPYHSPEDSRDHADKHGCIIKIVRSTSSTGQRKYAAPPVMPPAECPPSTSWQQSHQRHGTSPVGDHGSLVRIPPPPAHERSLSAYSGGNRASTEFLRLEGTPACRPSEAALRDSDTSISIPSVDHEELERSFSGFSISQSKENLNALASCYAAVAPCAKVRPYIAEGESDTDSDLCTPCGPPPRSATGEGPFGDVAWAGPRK
KCNQ2 pot baseline: also measured in KCNQ2 pot; calls as there; B-score; compound at 10 µM; measured here: initial fluorescence intensity artifact check;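 brightness before thallium and not channel activity; 0 = typical well and far values either way flag optical interference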
Active calls of the source: *. Some of the compounds tested; count on the stated rates, not on these rows.

SMILES | KCNQ2 pot | KCNQ2 pot baseline
CCOC(=O)N1CCN(C(=O)c2ccc(CS(=O)(=O)c3ccc(OC)cc3)o2)CC1 | 0.77 | -0.11
CC(C)c1cc(C(C)C)n2nc(N)nc2n1 | 0.96 | 0.65
COc1ccc(/C=C(\NC(=O)/C=C/c2ccco2)C(=O)NCCc2nc3ccccc3[nH]2)cc1 | 0.31 | -1.9
CC(C)(C)C(=O)CSc1nc2ccccc2o1 | 0.59 | -0.35
O=C(Nc1cccc(S(=O)(=O)N2CCCC2)c1)c1cc(S(=O)(=O)N2CCOCC2)ccc1F | 2.9 | -0.19
CCOC(=O)c1cc(-c2ccccc2)sc1NC(=O)C(C)Sc1nnnn1C (stereo not drawn) | 0.28 | -2.3
C[C@@H]1CCC[C@]2(O[C@@H](CCO)C[C@H](O)[C@H]2O)O1 | 1 | 0.81
O=C(C1CSC2(c3ccc(F)cc3)CCC(=O)N12)N1CCCCCC1 (stereo not drawn) | 0.59 | -1.6
O=C(CC(=O)Nc1ccc(F)cc1)Nc1ccc(F)cc1 | 1.8 | 2.5
Cc1onc(-c2ccccc2Cl)c1C(=O)N1CCCCCC1 | 2 | 1
COc1ccc(OC)c(NC(=O)Nc2cnccn2)c1 | 0.6 | -1.5
O=C(c1nnc(-c2ccccc2)o1)C1CC1 | 1 | -0.2
Cc1ccc2cc(CN(C(=O)c3cccs3)c3ccccc3)c(=O)[nH]c2c1 | 1.3 | 0.53
O=C(COC(=O)CCC1CCCC1)NCc1ccc(Cl)cc1 | 0.2 | -1.4
COc1ccc(CC(=O)N(C)CC(=O)Nc2ccccc2C(F)(F)F)cc1S(=O)(=O)N1CCOCC1 | 0.45 | 0.94
O=C(c1cc(Cl)nc2ccccc12)N(Cc1nnc(-c2ccccc2Cl)o1)C1CC1 | 0.52 | -0.43
CCN(C(=O)CSc1ncn[nH]1)c1cccc2ccccc12 | 0.45 | -1.4
N#CC1=C(SCc2ccccc2)NC(=O)C(C#N)C12CCCC2 (stereo not drawn) | 2.7 | -0.22
CCCCC(=O)Nc1ccc2c(c1)nc1n2CCN(CCOC)C1 | 0.99 | 1.6
Cc1ccc2nsnc2c1S(=O)(=O)N(Cc1cc2cccc(C)c2[nH]c1=O)CC1CCCO1 (stereo not drawn) | 0.03 | -0.14
NC(=O)c1cc2ccccc2oc1=NCc1ccccc1 | 0.31 | -2.7
CCOC(=O)C1CCN(C(=O)c2cc3c(=O)n4ccccc4nc3s2)CC1 | 2.5 | -0.41
N#Cc1c(N)nc2c(c1-c1cccc(O)c1)CCCCCC2 | 0.02 | -0.34
O=[N+]([O-])c1cccc(-c2c[n+]3c(n2-c2ccccc2)SCC3)c1 | 1.1 | 0.63
COC(=O)c1cc(OC)c(OC)cc1NC(=O)CN1CCCCC1 | 0.92 | -0.07

The list goes on:
SMILES | KCNQ2 pot | KCNQ2 pot baseline
CC1CCCC(C)N1S(=O)(=O)c1ccc(Cl)cc1 (stereo not drawn) | 0.02 | 0.65
Cn1c(=O)c2c(ncn2CC(=O)N/N=C/C=C/c2ccccc2)n(C)c1=O | 0.7 | 1.8
COc1ccc(S(=O)Cc2ccc(C(=O)N3CCN(c4cccc(C)c4C)CC3)o2)cc1 (stereo not drawn) | 1.1 | -2.4
N#CCC(=O)NCCCc1ccccc1 | 0.49 | 1.1
Cc1ccc2nc(SCC(=O)NCC3CCCO3)c(C#N)cc2c1 (stereo not drawn) | 0.86 | -0.87
CNC(=O)/C(C#N)=C/c1cn(CC(=O)OC)c2ccccc12 | 1.7 | -1.6
Cn1nnc(NC(=O)CSc2ncn[nH]2)n1 | 0.59 | -0.78
COc1ccc(OCc2cc(C(=O)N3CCCN(C(C)=O)CC3)no2)c(Cl)c1 | 0.98 | 1.5
N#CCSc1nc2sc3c(c2c(=O)n1C1CCCCC1)CCCC3 | 1 | 0.67
COc1ccc(C2NC(c3ccc(OC)cc3)C([N+](=O)[O-])C(C)(C)C2[N+](=O)[O-])cc1 (stereo not drawn) | 0.22 | 0.01
CCc1ccc(OCCSc2nc3ccccc3n2CC(=O)O)cc1 | 0.44 | -0.52
CCOC(=O)C(=O)Nc1ccccc1C(=O)Nc1ccc(OC)cc1 | 0.9 | 0.39
COC(=O)c1cn(Cc2cccc(C)c2)nn1 | 1.4 | -0.14
O=C(CSc1nnc2c(n1)[nH]c1ccccc12)N1CCCCC1 | 2.2 | -0.25
O=C(Nc1ccc(OCC(=O)N2CCOCC2)cc1)c1cncc(Br)c1 | 0.87 | 0.69
O=C(O)c1cccc(NC(=O)C2C3C=CC(C3)C2C(=O)OCC(F)(F)C(F)F)c1 (stereo not drawn) | 0.02 | -1.1
C/C(=N\NC(=O)c1cccc(F)c1)c1ccc(NC(=O)Cc2ccccc2)cc1 | 1.4 | 0.32
O=P(Cc1cccc[n+]1[O-])(c1ccccc1)c1ccccc1 | 0.37 | 1
C/C(O)=c1/cnc2nc3ccccc3n2c1=O | 0.7 | 2.1
CCCCNC(=O)CC1SC(=NCC)N(CC)C1=O (stereo not drawn) | 0.5 | 0.61
Nc1nnn(CC(=O)N/N=C/c2ccncc2)n1 | 0.01 | -0.8
Cc1ccc(NC(=O)CSc2nnc(C3CC3)n2N)cc1S(=O)(=O)N1CCOCC1 | 0.39 | -0.15
COc1ccccc1NS(=O)(=O)c1ccc(C)c(NS(=O)(=O)c2cc(C(=O)O)cc(C)c2C)c1 | 1.2 | -2.6
CN(C)S(=O)(=O)c1cc(C(=O)NCCCn2ccc3ccccc32)ccc1Cl | 0.01 | -0.67
COc1cc(C2C(C#N)=C(N)Oc3c2ccc2ccccc32)ccc1OCC(=O)Nc1cccc(C)c1 (stereo not drawn) | 1.5 | 0.59

Next results follow.
SMILES | KCNQ2 pot | KCNQ2 pot baseline
O=C(c1ccc(Br)s1)N1CCCC1 | 1.3 | 2.1
O=C(C[n+]1ccccc1)N/N=C/c1ccc(O)cc1 | 0.09 | 1.4
Cc1cc2c(N3CCCCC3C)ncnc2s1 (stereo not drawn) | 1.1 | 0.2
CC1CCCCN1S(=O)(=O)c1ccc(NC(=O)c2cccc(-n3cnnn3)c2)cc1 (stereo not drawn) | 0.45 | 1.7
CC(=O)NCCC(=O)Nc1cc(S(=O)(=O)N2CCCCC2)ccc1Oc1ccccc1 | 0.32 | -1.1
CCC1C(=O)N=C(SCC(=O)NC2CCCCC2)NC1=O (stereo not drawn) | 2 | -0.85
CCc1cc(=O)oc2cc(C)cc(OC(C)C(=O)NCc3ccccn3)c12 (stereo not drawn) | 0.11 | -1.4
COc1ccc(NC(=O)C2CCCN(c3c4c(nc5ncnn35)CCC4)C2)cc1 (stereo not drawn) | 1.5 | -0.91
CC(C)[C@H](NC(=O)[C@H](Cc1ccccc1)n1c(=O)[nH]c2ccccc2c1=O)C(=O)N1CCC[C@H]1C(=O)O | 0.28 | -0.28
CCNC(=O)c1cc2c(=O)n3cccc(C)c3nc2n(Cc2ccc(C)cc2)c1=N | 1 | 0.17
COCCNC(=S)N1CCC(NC(=O)Nc2ccc(C)cc2)CC1 | 0.06 | 0.04
O=C(c1cccc([N+](=O)[O-])c1)N1CCCC(C(=O)N2CCN(c3ccccc3)CC2)C1 (stereo not drawn) | 1.4 | 0.01
CCc1nnc(NC(=O)C2CCCN2C(=O)Nc2ccc(Cl)cc2)s1 (stereo not drawn) | 0.22 | 0.61
O=C(OCC(=O)N1CCCc2ccccc21)c1ccc(F)c(S(=O)(=O)N2CCOCC2)c1 | 0.2 | -2
O=C(NCCCCNC(=O)c1ccc(Cl)s1)c1ccc(Cl)s1 | 0.83 | -0.53
COc1ccccc1NS(=O)(=O)c1cc(NC(=O)c2ccc3c(c2)OCCO3)ccc1C | 0.62 | 1.8
COc1ccc(C)cc1S(=O)(=O)N(CC(=O)N1CCOCC1)c1cc(C)cc(C)c1 | 0.65 | -0.26
OCC1CCCCN1C(=S)Nc1ccc(Cl)cc1Cl (stereo not drawn) | 0.23 | -0.11
CN1CCN(CCc2nc3cc(NC(=O)COc4ccccc4)ccc3n2C)CC1 | 0.51 | 0.29
COc1ccc(-c2nnc(SCC(=O)Nc3ccc(C)cc3)n2C)cc1 | 0.97 | 0.04
CCCn1c(=O)c2c(nc3n2CCCN3Cc2ccccc2)n(C)c1=O | 0.02 | -0.02
COC(=O)CCCNC(=O)c1ccc(OS(=O)(=O)c2cc([N+](=O)[O-])ccc2C)cc1 | 0.23 | -0.19
COCCNc1c(-c2ccc(OC)c(OC)c2)nc2ccc(Cl)cn12 | 1.6 | -0.54
Cc1nonc1NC(=O)CSc1nc(C2CCCCC2)nc2ccccc12 | 0.03 | -0.78
C[C@]1(CO)CCC[C@@]2(C)C1CC[C@@H](CO)[C@@H]2CCc1ccoc1 (stereo partly drawn) | 1.9 | 1.3

Ordered by molecular weight (largest number first): some entries from above.
SMILES | KCNQ2 pot | KCNQ2 pot baseline
CC(C)[C@H](NC(=O)[C@H](Cc1ccccc1)n1c(=O)[nH]c2ccccc2c1=O)C(=O)N1CCC[C@H]1C(=O)O | 0.28 | -0.28
COc1ccccc1NS(=O)(=O)c1cc(NC(=O)c2ccc3c(c2)OCCO3)ccc1C | 0.62 | 1.8
CCc1cc(=O)oc2cc(C)cc(OC(C)C(=O)NCc3ccccn3)c12 (stereo not drawn) | 0.11 | -1.4

More results follow.
SMILES | KCNQ2 pot | KCNQ2 pot baseline
c1ccc2[nH]c(NC3=NCCC3)nc2c1 | 0.05 | -0.04
CC(C)Oc1ccccc1NC(=O)CSc1nc2ccccc2c(=O)n1C | 1.2 | 0.2
CNC(=O)NC(=S)NC(=O)c1ccccc1Cl | 0.12 | 0
CCN1/C(=C2\C(=O)N(C)C(=S)N2c2ccccc2)C=Cc2ccccc21 | 0.84 | -1.3
CN1/C(=C\C(=O)c2cccnc2)Sc2ccccc21 | 0.28 | 0.06
CC(=O)NC(NC(=S)N1CCCCCC1)C(Cl)(Cl)Cl (stereo not drawn) | 0.01 | 1.8
CCOc1cc(-c2nnn(CC(=O)N3CCCCC3)n2)ccc1OC | 0.58 | 0.17
O=C(COc1ccc(Cl)cc1)NCCCNC(=O)c1cnccn1 | 1.1 | 0.08
CCCCOc1ccc(/C=C/C(=O)NCCc2nc3ccccc3[nH]2)cc1 | 0.07 | 1.5
CN(CCC(=O)Nc1ccc2c(c1)OCO2)Cc1ccccc1 | 1.2 | 0.01
CC(c1nccs1)N(C)C(=O)CCc1nnc(CCc2ccccc2)o1 (stereo not drawn) | 0.4 | -0.95
CCN1CCCC1CNc1ncnc2c1[nH]c1ccc(F)cc12 (stereo not drawn) | 1.9 | -2.5
Cc1ccc(S(=O)(=O)Nc2cccc(-n3cnnn3)c2)cc1C | 0.03 | -2.2
COc1cc(CNc2ccc3[nH]c(=O)[nH]c3c2)cc(Br)c1OCc1ccc(F)cc1 | 0.06 | 2.4
CCCC[C@@H]1CNC(=O)C(=O)N1CCCc1cc(OC)c(OC)c(OC)c1 | 0.48 | 0.7
CCNc1c(NS(=O)(=O)c2ccc(Br)s2)c(=O)oc2ccccc12 | 0.64 | -0.07
CC(C)CNC(=O)COc1ccc2c3c(c(=O)oc2c1)CCC3 | 0.59 | -0.57
O=C(COC(=O)Cn1cnc2ccccc21)NCCC1=CCCCC1 | 0.54 | 1.4
O=C(CCS(=O)(=O)c1ccc(Cl)cc1)Nc1nnc(-c2cccs2)o1 | 0.53 | 0.82
CCSCc1nnc(SCC(=O)Nc2nc3ccccc3s2)n1C | 0.92 | 0.09
CCN(CC)CCCN1C(=O)C(O)=C(C(=O)c2sc(C)nc2C)C1c1ccco1 (stereo not drawn) | 1.7 | 0.72
CC(C)Cc1cc(CN2CCC(CO)(Cc3ccccc3)CC2)[nH]n1 | 2.4 | -0.41
Clc1ccc(/C=N/Nc2nn[nH]n2)cc1 | 0.62 | 1.5
COC(=O)c1sccc1NC(=O)Nc1ccc(OC)c(OC)c1 | 1.4 | 0.02
Cc1ccc(NC(=O)c2ccc(Br)o2)cc1S(=O)(=O)N(C)C | 1.6 | -1.9

Among those listed so far, these have a COOH group.
SMILES | KCNQ2 pot | KCNQ2 pot baseline
CCc1ccc(OCCSc2nc3ccccc3n2CC(=O)O)cc1 | 0.44 | -0.52
O=C(O)c1cccc(NC(=O)C2C3C=CC(C3)C2C(=O)OCC(F)(F)C(F)F)c1 (stereo not drawn) | 0.02 | -1.1
COc1ccccc1NS(=O)(=O)c1ccc(C)c(NS(=O)(=O)c2cc(C(=O)O)cc(C)c2C)c1 | 1.2 | -2.6
CC(C)[C@H](NC(=O)[C@H](Cc1ccccc1)n1c(=O)[nH]c2ccccc2c1=O)C(=O)N1CCC[C@H]1C(=O)O | 0.28 | -0.28

Looked up above:
CC(C)Cc1cc(CN2CCC(CO)(Cc3ccccc3)CC2)[nH]n1 – KCNQ2 pot = 2.4
CCCC[C@@H]1CNC(=O)C(=O)N1CCCc1cc(OC)c(OC)c(OC)c1 – KCNQ2 pot baseline = 0.7

(list continues)
SMILES | KCNQ2 pot | KCNQ2 pot baseline
COC(=O)C1(C)Nc2ccccc2C(=O)N1c1ccccc1C (stereo not drawn) | 0.44 | 0.63
Nc1nc(CN2CCN(c3ccccn3)CC2)nc(Nc2ccc(Cl)cc2)n1 | 1.8 | -1.4
Nc1c(S(=O)(=O)c2ccccc2)c2nc3ccccc3nc2n1/N=C/c1cccc(O)c1 | 0.14 | 0.29
COc1ccccc1C(=O)Nn1cnnc1 | 0.54 | 0.29
Cc1cc(/C=N\NC(=O)COc2cccc3cccnc23)c(C)n1-c1ccccc1 | 0.3 | 5
CCN(CC)CCCC(C)NC(=O)c1ccc(C(F)(F)F)cc1 (stereo not drawn) | 0.61 | -0.24
CCc1nnc(NC(=O)CCn2cnc3ccccc3c2=O)s1 | 0.17 | -0.76
CC(C)N1CCN(Cc2cc3ccccc3[nH]2)CC1CCO (stereo not drawn) | 0.06 | 0.01
COCCN1C(=O)c2cc(C(=O)Nc3ccc(OC)c(OC)c3)ccc2C1Nc1ccc(OC)c(OC)c1 (stereo not drawn) | 0.76 | 0

Compound activity as filed in PubChem BioAssay.
